Source: PubChem (SRMLSC)
H5N1 CPE: antiviral screen in MDCK cells, H5N1 avian flu | cytopathic effect, luminescence, 72 h; stronger effect = higher value; no value below 0 was filed and about half of the inactive calls have no number; reference of the scale not given here | inhibition, % at 50 µM | 0.07% of 96,000 active | AID 740; in the data active = inhibition above about 25%
An asterisk follows results filed as active; i = inactive. Not all compounds are listed; count on the stated rates, not on these rows.

SMILES	H5N1 CPE
Nc1ccnc(C(F)(F)F)c1C(=O)c1ccccc1	i
COc1ccccc1NC(=O)Cn1cncc1-c1ccc([N+](=O)[O-])cc1	0.8
COC(=O)Cc1c(O)ccn(Cc2cccc3ccccc23)c1=O	0.7
COc1ccc(NC(=O)C(=O)N/N=C/c2cc(C)n(-c3cccc(Cl)c3Cl)c2C)c(OC)c1	i
O=C1CN=C(c2ccccc2)c2oc3ccc(Br)cc3c2N1	1.0
O=C(CN(Cc1ccccc1)C(=O)c1ccco1)NCc1ccc(F)cc1	0.4
Cc1occc1-c1nnc(SCC(=O)N2c3ccccc3CCc3ccccc32)n1C	1.6
CC(NS(C)(=O)=O)C(c1cccs1)N1CCN(c2ccc(F)cc2)CC1 (configuration not stated)	i
Cc1cccc(NC(N)=S)c1	0.2
Cc1ccc(C(=O)Cn2nnc3ccccc32)cc1C	i
O=S1(=O)C=C(SCc2ccc(Cl)c(Cl)c2)Nc2ccccc21	1.0
CC1CN(S(=O)(=O)c2ccc(NC(=O)CCCN3C(=O)c4ccccc4C3=O)cc2)CC(C)O1 (configuration not stated)	0.2
Cc1cccc(N(CC(=O)NCCSCc2ccco2)S(=O)(=O)c2ccccc2)c1	i
COCC(=O)Nc1ccc(N(C)C)cc1	0.6
COc1ccccc1C(=O)N1CCc2ccccc21	0.2
Cc1ccc2cn[nH]c2c1NC(=S)NC(=O)c1ccccc1	1.4
CCCN(CCC)CCCNC(=O)c1cc2cc3ccc(OC)cc3nc2o1	1.3
CN(C)CCCNc1oc(-c2cccc(Cl)c2)nc1C#N	i
O=C(Cc1ccccc1)N/N=C/c1ccccc1Cl	2.5
Cc1ccc(/C=N/n2c(-c3cccs3)n[nH]c2=S)cc1	1.1
CCCS(=O)(=O)N1CCC(C(=O)NCCN(CC)c2ccccc2)CC1	i
CSc1nc2nc3c(c(=O)n2[nH]1)CCC3	i
CCOC(=O)c1c(C)nc2c(c1-c1ccc(OC)cc1)C(=O)CC(C)(C)C2	0.7
COc1ccccc1/C=C\C=N\n1c(C2CCCCC2)n[nH]c1=S	1.3
CC(C)(C)c1ccc(OCCN2CCCC2)cc1	i
Oc1c(C(c2cccs2)N2CCN(c3ccccc3)CC2)sc2ncnn12 (configuration not stated)	1.6
O=S(=O)(c1ccccc1)c1cnn(-c2ccccc2)c1-c1ccc(Cl)cc1	1.1
COc1ccc2c(c1)c(=O)c(Br)c(C)n2Cc1ccccc1	i
COc1ccc(OCC(=O)Nc2ccccc2O)cc1	0.0
CCCC(=O)Nc1ccc(C(=O)Nc2cc(C(F)(F)F)ccc2Cl)cc1	i
Cc1ccc(C2CC(c3ccccc3C)n3nc(N)nc3N2)cc1 (configuration not stated)	2.5
CC1=C(C(=O)Nc2cccnc2)C(c2cccnc2)n2nc(-c3cccs3)nc2N1 (configuration not stated)	0.4
CCOC(=O)C1=C(CSc2nc(C)cc(C)c2C#N)OC(N)=C(C#N)C1c1cccs1 (configuration not stated)	i
CCC(C)COC(=O)c1ccc(C(=O)O)cc1 (configuration not stated)	0.2
CC(C)c1nc2sc3c(c2c(=O)o1)CCCC3	0.6
NC(=O)c1ccccc1OCCOCCOCCOc1ccccc1C(N)=O	0.4
CC1(C)CC(=O)C=C(Nc2ccc(Br)cn2)C1	0.2
Cc1c(/C=N/N=C2\CCC3C4CCc5cc(O)ccc5C4CCC23C)cnn1C (configuration not stated)	1.2
COc1ccc(O)c(C(=O)c2cc(C#N)c(=O)n(CCN3CCOCC3)c2)c1	5.7
COc1ccc(C2(CNC(C)=O)CCCC2)cc1OC	0.5
O=C(Cn1nc(Cc2cccnc2)c2ccccc2c1=O)NCc1ccc2c(c1)OCO2	0.0
Cc1[nH]c(=O)[nH]c(=O)c1/C=N/NC(=O)[C@@H](NC(=O)OC(C)(C)C)C(C)C	0.1
O=C(CCC1COc2ccccc2O1)Nc1ncccc1O (configuration not stated)	i
CCOC(=O)c1cc(-c2ccc(C)cc2)n(CCC(=O)NCCCOC)c1C	0.1
c1cncc(-c2nc(-c3ccc4c(c3)OCO4)cs2)c1	0.4
CCn1c(SCC(=O)OC)nnc1C1CCCCC1	i
Nc1nc(CN2CCN(c3cccc(Cl)c3)CC2)nc(N2CCCc3ccccc32)n1	i
O=C(c1cc(-c2ccccc2)on1)N1CCN(Cc2ccc3c(c2)OCO3)CC1	i
COc1cccc(OCCOc2c(OC)cccc2OC)c1	i
COc1ccc(-c2cc3nc(C)cc(C)n3n2)cc1	1.4
Cc1ccc(C)c(-n2c(CNC(=O)c3ccco3)nnc2SCC(=O)Nc2nccs2)c1	1.1
CN(C)/C=C(\C#N)C(=O)c1cccnc1Oc1ccc(F)cc1F	i
O=C(NCC1(N2CCOCC2)CCCCC1)c1ccc(Cl)c(S(=O)(=O)NCc2ccco2)c1	i
CCOc1ccc(/C(O)=C2/C(=O)C(=O)N(c3nc(C)c(C)s3)C2c2ccco2)cc1 (configuration not stated)	0.1
COC(=O)Cc1csc(N)n1	0.9
COc1ccccc1N=Cc1nc(-c2ccccc2)oc1OC(C)=O	0.1
O=C(c1ccc([N+](=O)[O-])cc1)n1nc(-c2ccccc2)nc1NCc1ccccc1	i
CC(CCc1ccccc1)NC(=O)C1CCN(S(=O)(=O)c2cnc[nH]2)CC1 (configuration not stated)	i
COc1cccc(C(=O)Nc2ccc3nc(N4CCN(c5ncccn5)CC4)cc(C)c3c2)c1OC	i
COC(=O)c1[nH]c2c(c1C)C(=O)CCC2	0.5

Further results.
SMILES	H5N1 CPE
CC1CCN(Cc2csc(N)n2)CC1	i
O=C(COC(=O)c1ccco1)c1ccc2ccccc2c1	2.1
C=CCc1ccc(OCCOCCNCCCC)c(OC)c1	i
C=CCN(CC=C)S(=O)(=O)c1ccc(NC(=S)NC(=O)/C=C/c2cccc3ccccc23)cc1	i
Cc1noc(NS(=O)(=O)c2ccc(N3Cc4ccccc4C3=O)cc2)c1C	i
Cc1ccc(N(Cc2ccccc2F)S(C)(=O)=O)cc1C	i
CS(=O)(=O)N(CC(=O)O)c1ccc2c(c1)OCO2	i
COc1ccc(C(=O)Nc2cccnc2)cc1S(=O)(=O)N1CCOCC1	0.4
COC(=O)C1=C(C)NC(=O)CC1c1cc2c(cc1Br)OCO2 (configuration not stated)	i
C/C(=N/NC(N)=S)c1ccccc1[N+](=O)[O-]	i
CN(C(=O)CSc1nnc(N)s1)c1c(N)n(Cc2ccccc2)c(=O)[nH]c1=O	2.4
Cc1ccccc1Oc1ccc(Oc2ccccc2C)nn1	i
c1ccc2[nH]c(NCCN3CCOCC3)nc2c1	0.2
O=c1c2ccccc2c2c(O)nc(-c3ccccc3)n2n1Cc1ccccc1	i
CCCCn1nc(C(=O)N2CCc3ccccc32)c2ccccc2c1=O	2.1
N#Cc1c(N)nc(N2CCCC2)c(C#N)c1-c1ccc(Cl)cc1	0.7
Cc1cc(-c2c(C)[nH]n(-c3ccc(Cl)cc3)c2=O)n(-c2ccc(Cl)cc2)n1	i
O=S(=O)(CCc1nnc(-c2ccc(Br)cc2)o1)c1ccc(Cl)cc1	1.4
CCCCCCN=C(C)c1c(O)n(Cc2ccccc2)c(=O)[nH]c1=O	0.3
CCOc1ccccc1C(=O)NCc1ccco1	3.5

An excerpt from above in order of formula weight, falling.
SMILES	H5N1 CPE
CCCCn1nc(C(=O)N2CCc3ccccc32)c2ccccc2c1=O	2.1
CCCCCCN=C(C)c1c(O)n(Cc2ccccc2)c(=O)[nH]c1=O	0.3
O=C(COC(=O)c1ccco1)c1ccc2ccccc2c1	2.1

Back to the main list; the 12 compounds before the break are reprinted first.
SMILES	H5N1 CPE
COC(=O)C1=C(C)NC(=O)CC1c1cc2c(cc1Br)OCO2 (configuration not stated)	i
C/C(=N/NC(N)=S)c1ccccc1[N+](=O)[O-]	i
CN(C(=O)CSc1nnc(N)s1)c1c(N)n(Cc2ccccc2)c(=O)[nH]c1=O	2.4
Cc1ccccc1Oc1ccc(Oc2ccccc2C)nn1	i
c1ccc2[nH]c(NCCN3CCOCC3)nc2c1	0.2
O=c1c2ccccc2c2c(O)nc(-c3ccccc3)n2n1Cc1ccccc1	i
CCCCn1nc(C(=O)N2CCc3ccccc32)c2ccccc2c1=O	2.1
N#Cc1c(N)nc(N2CCCC2)c(C#N)c1-c1ccc(Cl)cc1	0.7
Cc1cc(-c2c(C)[nH]n(-c3ccc(Cl)cc3)c2=O)n(-c2ccc(Cl)cc2)n1	i
O=S(=O)(CCc1nnc(-c2ccc(Br)cc2)o1)c1ccc(Cl)cc1	1.4
CCCCCCN=C(C)c1c(O)n(Cc2ccccc2)c(=O)[nH]c1=O	0.3
CCOc1ccccc1C(=O)NCc1ccco1	3.5
COC(=O)c1c(NC(=O)c2ccccc2)sc(Cc2ccccc2)c1C	i
CCCCOC(=O)C1=C(N)OC2=C(C(=O)CCC2)[C@]12C(=O)N(C)c1ccccc12	i
O=C(N/N=C/c1cccc(OCc2ccccc2)c1)c1cccs1	0.2
O=C(Nc1cccnc1)c1ccc(S(=O)(=O)N2CCCCCC2)cc1	1.0
Cc1ccc(NC(=O)CCn2c(=O)oc3ccccc32)c(C)c1	i
O=C(Nc1ccc(F)cc1)C(c1ccccc1)N1CCN(C(=O)c2ccco2)CC1 (configuration not stated)	i
CCOC(=O)C(C)Sc1nc2c(c(=O)[nH]c(=O)n2C)n1Cc1ccc(Cl)cc1 (configuration not stated)	1.8
N#CCCn1c(SCC(=O)NCCc2ccc(F)cc2)nc2ccccc21	0.4
CSC1=N/C(=C\c2ccc3c(c2)OCO3)C(=O)S1	1.7
OC(COc1ccc2ccccc2c1Br)Cn1cnc(-c2ccccc2)c1 (configuration not stated)	i
CCC(=O)Nc1ccc2c(c1)nc1n2CCSC1	i
COc1ccccc1NC(=O)CSc1nnc(-c2ccncc2)n1CC1CCCO1 (configuration not stated)	1.3
O=C1C2C3C=CC(C3)C2C(=O)N1CCCCN1C(=O)C2C3C=CC(C3)C2C1=O (configuration not stated)	0.8
COC(=O)c1c(NC(=O)CSc2nnc(CNc3ccc(Cl)cc3)o2)sc(C)c1C	i
Cc1ccc2nc3c(cc(C(=O)NCCCn4ccnc4)n3C)c(=O)n2c1	0.4
O=C(c1cccs1)c1cn(CC(=O)N2CCc3ccccc3C2)c2ccccc12	0.6
COc1ccc(-n2c(SCC(=O)NCc3ccco3)nc3c([nH]c4ccccc43)c2=O)cc1	1.8
CCOC(=O)NC(O)C(=O)c1cccs1 (configuration not stated)	i
CCOC(=O)c1cnn(-c2cc(Oc3ccccc3C)ncn2)c1N	i
Cc1ccc(S(=O)(=O)NNC(=O)C2CCN(Cc3ccccc3)CC2)cc1	0.3

Reprinted at random: 4 entries already listed, in no set order.
SMILES	H5N1 CPE
CCOC(=O)c1cc(-c2ccc(C)cc2)n(CCC(=O)NCCCOC)c1C	0.1
CCCN(CCC)CCCNC(=O)c1cc2cc3ccc(OC)cc3nc2o1	1.3
O=C(CCC1COc2ccccc2O1)Nc1ncccc1O (configuration not stated)	i
O=C(Cc1ccccc1)N/N=C/c1ccccc1Cl	2.5

The list goes on.
SMILES	H5N1 CPE
O=C(Nc1nsc(-c2ccccc2)n1)c1ccncc1	1.9
CCOc1ccccc1N1CCN(c2nc3ccccc3nc2C(C#N)C(=O)OC)CC1 (configuration not stated)	i
COc1cc(OC)c(N(C)C(=O)CCNC(=O)Cn2cnc3ccccc3c2=O)cc1Cl	2.0
Cn1nc(OCC(N)=O)ccc1=O	i
Cc1cccc(NC(=O)C2CCCN(c3nc(C)cc(C)n3)C2)c1 (configuration not stated)	0.7
O=C(CSc1nnc2sc3ccccc3n12)c1ccco1	12
COc1ccc(-n2ncc3c(NCC(C)C)ncnc32)cc1	0.3
CCOC(=O)C1=C(Nc2ccc(C)cc2)CC(C)(O)C(C(=O)OCC)C1c1ccccc1 (configuration not stated)	i
O=C(O)c1ccc2c(=O)[nH]c(CN3CCOCC3)nc2c1	i
O=C(NCc1nc2ncc(Br)cc2[nH]1)c1ccccc1	0.3
Cn1c(=O)n(C)c2cc(S(=O)(=O)NCc3ccccc3)ccc21	i
Cc1cc(OCc2nn[nH]n2)c2c3c(c(=O)oc2c1)CCCC3	0.9
CCC(C)c1ccc2oc(-c3ccc(NC(=O)Cn4cnc5c(=O)n(C)c(=O)n(C)c54)cc3)nc2c1 (configuration not stated)	i
Cc1nnc(SCC(=O)N2CCOCC2)s1	i
CCOC(=O)Cc1csc(NC(=O)CCCN2C(=O)c3ccccc3C2=O)n1	0.1
N#Cc1c2ncn(CC(=O)c3ccc(Br)cc3)c(=O)c2c2n1CCC2	i
Cc1ncc(S(=O)(=O)c2ccccc2)c(-c2ccccc2Cl)n1	0.7
COc1cc(C(N)=O)ccc1OCc1ccccc1	i
CCOC(=O)c1cnc2c(OC)cccc2c1N1CCN(c2ccc(OC)cc2)CC1	0.2
O=C(CCn1c(=O)oc2ccccc21)NCCCN1CCCC1=O	1.0
CCOc1ccc(C2C(C#N)=C(N)Oc3nc[nH]c(=O)c32)cc1OC (configuration not stated)	i
CCOC(=O)N1CCN(C(=O)Nc2cccc(Cl)c2)CC1	i
Cc1nonc1-c1nc(-c2nonc2N)n[nH]1	i
CC(C)(C)N1CC(COc2ccccc2)OC1=O (configuration not stated)	i
CC(c1ccccc1)n1cc(C(=O)NCc2ccncc2)nn1 (configuration not stated)	1.2
Nc1nonc1-c1noc(-c2ccccc2)n1	i
CCOC(=O)c1c(-c2ccc(C)cc2)csc1NC(=S)NC(=O)c1ccccc1	9.5
COC(=O)CCC(=O)c1oc2ccc(OC)cc2c1N	i
Cn1c(Cn2nnc3ccccc32)nnc1SCC(=O)c1ccccc1F	1.7
Cc1nc2sc(C(c3ccc(Cl)cc3)N3CCN(c4ccccc4F)CC3)c(O)n2n1 (configuration not stated)	i
Cn1c(=O)cc(OCCCC(=O)NCc2ccccn2)c2ccccc21	0.5
NC(=O)C1(N2CCCCC2)CCN(Cc2ccccc2)CC1	i
O=C(COc1ccc2ccccc2c1)N1CCN(c2ccccc2O)CC1	0.6
C1CCc2c(nc3nnnn3c2N2CCOCC2)C1	1.0
COC(=O)c1cc(=O)nc2sc3ccccc3n12	0.3
COC(=O)C1(CCSC)NC(c2ccco2)C2C(=O)N(C)C(=O)C21 (configuration not stated)	0.4
COc1cccc(Sc2cc(N3CCOCC3)nc(-c3ccccc3)n2)c1	0.8
c1ccc(-n2ncc3c(N4CCC5(CC4)OCCO5)ncnc32)cc1	i
CCOCCCn1c(=S)[nH]c2ncccc2c1=O	1.7
CN(C)C(=O)Cn1c(=O)n(C)c2ccccc21	0.2
c1ccc(Cn2nnnc2C(c2cccs2)N2CCOCC2)cc1 (configuration not stated)	1.7
